# Assay outcomes (PubChem BioAssay)
# GLA inh pH 4.5: qHTS Assay for Inhibitors of Human alpha-Galactosidase at pH 4.5; Alpha-galactosidase A (Homo sapiens), P06280; purified enzyme, 4-MU-alpha-Gal fluorescence, pH 4.5; activity change, negative = inhibition, % at 105 µM; 230,000 tested, under 10 active; inconclusive = small, poorly fitted or top-dose-only inhibition, or a rising curve; inactive = flat fitted curve, though single readings scatter; no compound was filed as active;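 note: 0% = full activity with enzyme and -100% = basal without enzyme; dose as in the result columns while the protocol names 77 µM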
# Target sequence (P06280 whole entry, looked up): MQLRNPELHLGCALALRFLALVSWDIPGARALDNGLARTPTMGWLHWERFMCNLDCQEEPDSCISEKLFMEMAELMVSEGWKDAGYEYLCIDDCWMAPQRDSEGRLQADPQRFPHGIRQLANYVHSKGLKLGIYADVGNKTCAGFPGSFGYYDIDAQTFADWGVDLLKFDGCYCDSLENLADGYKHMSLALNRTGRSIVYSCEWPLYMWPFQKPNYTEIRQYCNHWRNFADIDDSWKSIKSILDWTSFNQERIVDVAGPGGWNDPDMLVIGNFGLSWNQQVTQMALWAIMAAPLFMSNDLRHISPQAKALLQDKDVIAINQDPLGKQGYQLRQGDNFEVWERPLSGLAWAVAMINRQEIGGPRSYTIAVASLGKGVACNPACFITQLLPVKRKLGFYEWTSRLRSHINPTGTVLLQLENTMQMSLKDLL
# Rango-impB inh: qHTS Assay for Inhibitors of Rango (Ran-regulated importin-beta cargo) - Importin beta complex formation; Importin subunit beta-1 (Homo sapiens), Q14974; Rango CFP/YFP FRET sensor + importin beta, 45 min; Potency, µM (highest dose often 92.2 µM), for the others: top-dose inhibition of complex formation; hit rate 0.031% among 340,000; active = rising FRET ratio curve, often small or poorly fitted; inconclusive = mostly compound fluorescence or quenching in the first reads; inactive = flat curves in all reads;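 note: potency is the fitted concentration of half-maximal effect; 0% = DMSO wells and 100% = buffer wells lacking importin beta; nearly all actives have a fitted effect of over 15% in size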
#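 FRET biosensor Rango (snurportin 1 IBB between N-terminal EYFP and C-terminal Cerulean), 50 nM in PBS/1 mM DTT/0.02% Tween-20/0.1% BSA, preincubated 5 min RT with compound; 0.125 microM importin beta added, 45 min RT, CFP/YFP FRET ratio read.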
# Rango dissoc inh: qHTS Assay for Inhibitors of RanGTP induced Rango (Ran-regulated importin-beta cargo) - Importin beta complex dissociation. Snurportin-1 (Homo sapiens) + GTP-binding nuclear protein Ran (Homo sapiens) + Importin …. Biochemical FRET Rango-importin beta, RanGTP-induced dissociation. Potency, µM (top dose mostly 46.1 µM), for the others: top-dose activity change, negative = inhibition. hit rate 0.071% among 340,000. AID 540253, 2011; active means falling FRET ratio curve, often poorly fitted, with flat reads before Ran was added; inconclusive means other falling curves, or compound fluorescence or quenching; inactive means flat or rising ratio curve;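 note: potency is the fitted concentration of half-maximal effect; % of control where 0% means no effect; nearly all actives have a fitted effect of over 45% in size; -100% = wells without RanGTP and RCC1; the record marks most hits as doubtful in a second field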
#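 Rango/importin beta premix (0.1/0.25 uM final), PBS + 1 mM DTT + 0.02% Tween-20 + 0.1% BSA; cpd 5 min RT; FRET pre-read; + RanGTP-RCC1 (0.6 uM Ran, 2 mM GTP, 0.2 uM RCC1); 45 min RT; FRET post-read, ex 430, em 486/530 nm.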
# miR-21 reporter: qHTS Assay for Modulators of miRNAs and/orActivators of miR-21; HeLa miR-21 FLuc reporter, luciferase, 48 h; Potency, µM (titrated, usually from 38.3 µM), for the others: at the top dose reporter change, positive = more light; 340,000 tested, under 10 active; AID 2288, 2010; active = well fitted rising curve with a large enough effect; inconclusive = small, poorly fitted or top-dose-only effect; inactive = no such curve, though single readings can be large or run the other way;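 note: % of control where 0% means no effect; miR-21 action dims this reporter so a rising signal means less miR-21 action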
#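 HeLa cells stably expressing CMV-driven firefly luciferase with a downstream miR-21 binding sequence, endogenously expressing miR-21, were treated with titrations (up to about 40uM final) for 48 hours at 37 degree Celsius. Luciferase luminescence was read after lysis.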
# The depositor's hits bear a star; ? = inconclusive; . = no result given; & = joins results of further samples. Not all compounds are listed; rates above refer to the full screens.
SMILES,GLA inh pH 4.5,Rango-impB inh,Rango dissoc inh,miR-21 reporter
O=C(CC1C(=O)NCCN1Cc1c(F)cccc1Cl)NCCCn1cccn1 (stereo not given),-3.8,-0.5%,-0.1%,-0.2%
CCc1nc(SCC(=O)N2CCC(Cc3ccccc3)CC2)c2c(=O)n(C)c(=O)n(C)c2n1,5.6,.,.,-2.5%
CS(=O)(=O)Cc1ccc(C(=O)Nc2cccc(-c3nc4ccccc4[nH]3)c2)cc1,.,-1.1%,0.4%,-62.9%
C=CCNC(=O)CCCc1ccccc1,8.2,3.8%,-4.1%,-8.7%
CN1/C(=C\C=C(C#N)C#N)C(C)(C)c2ccccc21,-9.1,?,?,-5.2%
CC(C)(C)n1nc2c(c1NC(=O)Cc1ccc(F)cc1)CSC2,-17.1,?,0.2%,-11.6%
CC1CCCC(C)N1/N=C/c1cc(Br)cc(Br)c1O (stereo not given),0.6,?,?,-1.6%
Clc1ccc(C2=NNC(=NCc3ccccc3)SC2)cc1,-9.5,0.9%,7.8%,-24.1%
Cc1ccc(C(=O)COC(=O)c2ccc(Cl)c(N)c2)s1,.,?,-8.5%,.
O=C(CCCCCn1c(=O)[nH]c2ccsc2c1=O)NCc1cccs1,-1.5,0.1%,1.3%,-4.1%
COc1ccc(-n2c3c(c(=O)[nH]c2=O)C(NS(=O)(=O)c2ccc(Cl)cc2)(C(F)(F)F)C(=O)N3)cc1 (stereo not given),-0.7,-1.3%,2.0%,-1.1%
COc1ccc(NC(=O)C23CC4CC(C2)CC(c2ccccc2)(C4)C3)c(OC)c1,0.9,-1.0%,0.5%,-13.1%
O=C(COc1ccccc1)NCC(c1cccs1)N1CCOCC1 (stereo not given),1.0,1.0%,19.0%,-1.4%
COc1cc(OC)c(CN2CCc3c([nH]c4ccccc34)C2)cc1Br,.,-4.5%,0.1%,20.7%
CCN(CC)C(=O)Nc1ccccc1C,0.0,0.4%,0.9%,-1.1%
Cc1c(C(=O)NCc2cccs2)oc2ccccc12,-17.2,-1.5%,-2.0%,-25.1%
Cc1cc2oc(=O)cc(-c3cc4ccccc4o3)c2cc1O,.,-0.1%,-16.7%,-11.7%
CCOC(=O)C1CCCN(C(=O)c2ccc(CNS(=O)(=O)c3ccc(C)cc3)cc2)C1 (stereo not given),4.6,-1.3%,-23.1%,-2.3%
O=C(c1ccccc1Cl)N1CCn2c1nc1ccccc12,-19.5,2.5%,-2.5%,-1.4%
COc1ccc(CN2C(=O)NC(C)(c3ccc(C)cc3)C2=O)cc1F (stereo not given),-4.7,?,5.8%,-0.7%
CCOc1ccccc1COC(=O)c1cccc(-n2cnnn2)c1,-3.2,1.7%,0.5%,-22.3%
COc1cccc(N2CC(=O)N(c3cccc(OC)c3)CC2=O)c1,-1.1,-4.8%,-2.2%,-0.8%
COc1ccc(C2C3=C(CCCC3=O)Nc3n[nH]c(C)c32)cc1OC (stereo not given),0.6,-0.2%,5.3%,0.2%
CCCn1c(-c2cccs2)nc2ccccc21,-2.3,6.7%,-12.6%,-8.9%
CC(Sc1c[nH]c2ccccc12)C(=O)O (stereo not given),-4.7,-3.9%,-10.3%,3.6%
CC(NC(=O)CN1CCN(c2ccc(Cl)cc2)CC1)c1ccccc1 (stereo not given),.,-1.0%,7.2%,5.9%
O=C1C2ON(c3ccccc3)C(c3cccnc3)C2C(=O)N1c1ccc(Cl)c(Cl)c1 (stereo not given),1.5,0.3%,0.1%,0.4%
Cc1cccc(NC(NC(=O)c2cccnc2)C(Cl)(Cl)Cl)c1 (stereo not given),-6.7,4.1%,1.7%,5.6%
Cc1ccc(-c2nnn(CC(=O)N(CCN3CCOCC3)C(C(=O)NC3CCCC3)c3ccncc3)n2)o1 (stereo not given),-4.2,-1.3%,-0.7%,8.9%
COc1ccc(CN(C(=O)CN2C(=O)COc3ccccc32)C2CCCC2)c(OC)c1,-1.1,-3.4%,-11.6%,-3.8%

# 5 compounds from above, reduced to miR-21 reporter and Rango dissoc inh.
molecule | miR-21 reporter | Rango dissoc inh
COc1ccc(CN(C(=O)CN2C(=O)COc3ccccc32)C2CCCC2)c(OC)c1 | -3.8% | -11.6%
Cc1ccc(-c2nnn(CC(=O)N(CCN3CCOCC3)C(C(=O)NC3CCCC3)c3ccncc3)n2)o1 (stereo not given) | 8.9% | -0.7%
CCOc1ccccc1COC(=O)c1cccc(-n2cnnn2)c1 | -22.3% | 0.5%
CC(NC(=O)CN1CCN(c2ccc(Cl)cc2)CC1)c1ccccc1 (stereo not given) | 5.9% | 7.2%
CC(Sc1c[nH]c2ccccc12)C(=O)O (stereo not given) | 3.6% | -10.3%

# The results go on:
SMILES,GLA inh pH 4.5,Rango-impB inh,Rango dissoc inh,miR-21 reporter
COc1ccc(Br)cc1CN(C)C(=O)Cc1ccc(S(=O)(=O)N2CCOCC2)s1,.,?,-8.4%,.
Cc1c(C)[n+](=O)c(-c2ccc(F)cc2)c(C)n1[O-],-2.4,3.6%,0.8%,-4.4%
Cc1cc(C)nc(-n2nc(C)c3c(C(=O)O)cc(-c4cccc(Br)c4)nc32)n1,-0.4,0.5%,8.1%,-1.2%
CCc1ccc2nc3sc(C(=O)O)cc3cc2c1,0.0,0.4%,11.9%,2.5%
Cc1c(O)ccc(C(=O)COc2ccccc2F)c1O,-20.8,-5.2%,-9.6%,-43.5%
Cc1cccc(NC(=O)c2cc3c(s2)-c2c(C)cccc2OC3)n1,14.8,?,?,-29.7%
COc1cc(C(=S)N2CCOCC2)cc(OC)c1OC(=O)c1ccc(C)cc1,.,-0.7%,5.2%,0.6%
CSCCC1NC2(C(=O)Nc3c2ccc(Cl)c3C)[C@@H]2C(=O)N(C3CCCC3)C(=O)[C@H]12 (stereo not given in full),-2.3,0.4%,-14.4%,1.7%
CC(=O)Nc1cc(C)ns1,.,-1.6%,-8.7%,.
CN(C)S(=O)(=O)c1cccc(C(=O)OCC(=O)NC2CCCc3ccccc32)c1 (stereo not given),0.0,1.7%,-3.3%,-6.4%
COc1ccc(CCNC(=O)c2ccc(N(C)S(=O)(=O)c3ccc(C)cc3)cc2)cc1,?,-3.8%,6.1%,-2.6%
COc1cc(OC)c(C2=NOC(C(=O)NCc3cccs3)C2)cc1Cl (stereo not given),-0.5,-0.9%,22.1%,-1.1%
CCOc1ccc(C(=O)N(Cc2ccccc2)c2cccc(C)c2)cc1OC,.,-3.1%,-4.9%,-18.3%
CCC1CCC/C1=N\NC(=O)c1ccccc1C (stereo not given),.,-1.5%,-1.3%,.
O=C(C[C@H]1C/C=C\CC[C@H](Cc2ccc(F)cc2)C(=O)OC[C@H]2CCCN2C1=O)N[C@H](CO)Cc1ccccc1,.,-1.4%,2.3%,.
CC(=O)C1=C(O)C(=O)N(Cc2ccccc2)C1c1ccc(Cl)cc1 (stereo not given),.,-6.1%,0.2%,0.1%
CCCCCOC(=O)Nc1ccc(S(=O)(=O)Nn2cnnc2)cc1,8.9,0.0%,17.0%,-0.5%
CCOC(=O)c1ccc(S(=O)(=O)N2CCN(CCc3ccncc3)CC2)cc1,.,2.4%,28.2%,.
CCOC(=O)c1nc(N/N=C/c2ccccc2)sc1Br,.,-5.0%,-23.0%,-11.2%
CCOC(=O)C1=C(c2ccccc2)NC(=O)NC1c1cc(OC)c(O)c([N+](=O)[O-])c1 (stereo not given),.,2.9%,8.7%,-1.4%
COC(=O)Cc1c(C)nc2nc(-c3ccc(C)cc3)[nH]n2c1=O,4.4,0.3%,-8.9%,-6.8%&1.1%
O=c1oc2ccccc2n1CSc1nc2ccccc2s1,7.9,-0.5%,35.8%,-56.0%
CCCCOc1ccc(C(=O)OC(C)CN(C)C)cc1 (stereo not given),10.6,3.1%,9.3%,-3.2%
N#C/C(=C\c1ccccc1)C(=O)NC(=O)Oc1ccccc1,3.1,?,?,-0.6%
O=C(Nc1ccncc1)c1cccc(S(=O)(=O)N2CCOCC2)c1,.,-4.5%,?,.
CCN(CC)CCCN1C(=O)C(O)=C(C(=O)c2cc3cccc(OC)c3o2)C1c1ccncc1 (stereo not given),-18.3,4.7%,-13.8%,-3.7%
COc1ccccc1NC(=O)Cn1nnc(-c2ccccc2NC(=O)c2cccs2)n1,-2.9,-2.5%,3.3%,-1.9%
Cc1n[nH]c(=O)c2c(NC(=O)CSc3nnnn3-c3ccccc3)oc(C)c12,.,5.8%,-1.1%,.
OC(COc1ccc2cc(Br)ccc2c1)CN1CCN(c2ccccn2)CC1 (stereo not given),-16.2,-0.3%,-10.5%,-0.3%
CCOc1ccc(Br)cc1C(=O)N/N=C/c1c[nH]c2ccccc12,.,-3.8%,-7.7%,7.0%

# As a short view, some entries already given.
SMILES,GLA inh pH 4.5,Rango-impB inh,Rango dissoc inh,miR-21 reporter
COc1ccccc1NC(=O)Cn1nnc(-c2ccccc2NC(=O)c2cccs2)n1,-2.9,-2.5%,3.3%,-1.9%
Cc1n[nH]c(=O)c2c(NC(=O)CSc3nnnn3-c3ccccc3)oc(C)c12,.,5.8%,-1.1%,.
OC(COc1ccc2cc(Br)ccc2c1)CN1CCN(c2ccccn2)CC1 (stereo not given),-16.2,-0.3%,-10.5%,-0.3%
CCOc1ccc(Br)cc1C(=O)N/N=C/c1c[nH]c2ccccc12,.,-3.8%,-7.7%,7.0%

# Next records:
SMILES,GLA inh pH 4.5,Rango-impB inh,Rango dissoc inh,miR-21 reporter
C/C(=N\Nc1ccc(C#N)cc1[N+](=O)[O-])c1ccc(O)cc1,1.4,2.1%,-7.1%,2.3%
O=C(CN1CCN(c2ccc(O)cc2)CC1)NCC(=O)Nc1ccc(F)c(F)c1F,.,-3.2%,-0.7%,.
Cc1ccnc(N2C(=O)c3ccccc3C2=O)c1,.,1.3%,-7.8%,0.7%
COC(=O)Cc1c(C)c2ccc(OC(C)C)cc2oc1=O,5.0,-2.3%,-6.8%,-41.3%
CCCOC(=O)Nc1sc2c(c1C(N)=O)CCCC2,-0.2,0.1%,-8.1%,-12.6%
CNC(=O)Cn1c(C)cc(=O)c2cccc(C)c21,1.5,0.1%,-5.0%,-4.5%
Cc1ccc(C(=O)O)cc1S(=O)(=O)N1CCOCC1,4.0,-0.7%,-2.5%,-3.1%
COc1ccccc1NC(=O)CCC(=O)c1ccc(-c2ccccc2)cc1,-6.6,?,-19.0%,-11.1%
Cc1cc(OCCCC(=O)Nc2cccc(-n3cnnn3)c2)ccc1Cl,.,-1.1%,-1.7%,16.2%
C=CCn1c(=O)c(C(=O)Nc2ccccc2S(N)(=O)=O)c(O)c2ccccc21,-8.9,?,-15.2%,-71.2%
CCC12CN(C(=O)c3ccco3)CC(CC)(CN(C(=O)c3ccco3)C1)C2=O,.,?,7.0%,-3.6%
CCOC(=O)c1c2c3c(c(Cl)ccc3[nH]c1=O)C(=O)c1ccccc1-2,1.9,5.3%,0.3%,-0.6%
